Screens (PubChem)
PrP 5UTR inh: suppresses PrP 5' UTR mRNA reporter expression. cell-based PrP 5' UTR mRNA reporter, plate reader. inhibition, % (test concentration not listed). 340,000 compounds, 0.35% hits;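 active means every replicate at 50% or more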;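 further: 0 = median of the neutral control wells; tested in H4 reporter cells; numbers are from one replicate; inactives centre near -14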
Bead autofluor: counter-screen for toxin protease inhibitors: compound fluorescence; 360,000 compounds, 3.1% hits; compound autofluorescence counterscreen, microsphere flow cytometry; hits give high values; AID 624483; fluorescence intensity (no concentration beside the values);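 active means at least 3 SD above the mean of all compounds, about 16000 in these data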;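 further: 100 nL of 1 mM stock went into each well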
Active calls of the source: *; & = joins results of further samples. Some of the compounds tested; rates above refer to the full screens.

SMILES	PrP 5UTR inh	Bead autofluor
C[C@@H](C(=O)NCc1ccc(S(C)(=O)=O)cc1)[C@@H]1C[C@@]1(C)[C@@H](NC(=O)OCc1ccccc1)c1ccccc1	-18	3705
CC(C)C[C@@H](CNCC(=O)[C@H](Cc1c[nH]c2ccccc12)NC(=O)c1[nH]cnc1C(=O)N[C@@H](C)CN)NC(=O)c1nc[nH]c1C(=O)N[C@@H](Cc1ccccc1)C(=O)O	-13	3842
CCOc1ccc(CCN2C(=S)N([C@@H](CC(C)C)CN3CCCC3CN3C(=S)NC[C@@H]3CC(C)C)C[C@@H]2Cc2ccc(O)cc2)cc1 (stereo partly specified)	-8	2947
Cc1ccc(S(=O)(=O)SC/C=C/CSS(=O)(=O)c2ccc(C)cc2)cc1	-24	4201
CCCNC(=O)N1[C@H]2CC[C@@H]1C(C(=O)OC)=C(c1ccc(F)cc1OCc1ccccc1)C2	-1	3927
O=C1CC/C=C\C[C@@H](CC(=O)N(CCO)Cc2ccccc2)C(=O)NCCO1	-22	3938
CC(=O)N1CC(C(=O)Nc2ccc3c(c2)OCO3)Oc2ccccc21 (stereo unspecified)	-11	2884
CC(=O)C[C@H](O)CC(=O)[C@@H]1OC(=O)CCCCCCc2ccccc21	-17	3879
CC1(c2ccc3c(c2)OCO3)NC(=O)N(CC(=O)Nc2ccccc2[N+](=O)[O-])C1=O (stereo unspecified)	-6	5488
COC(=O)C1=C(c2ccc3ccccc3c2)C[C@@H]2CC[C@H]1N2C(=O)N1CCCCC1	-18	2870
CCOC(=O)N1CCN(C(=O)C2CCN(C(=O)c3ccccc3C)CC2)CC1	-2	3681
COC(=O)C1=C(c2ccc(OC)c(OC)c2)C[C@@H]2CC[C@H]1N2C(=O)NCc1cccc2ccccc12	0	3828
Cc1ccc2nc(N3CCN(C(=O)c4ccccc4F)CC3)c(C#N)cc2c1	-16	4434
Cc1cccc(C(=O)OCC(=O)Nc2ccc3c(c2)OCCO3)c1O	-5	4309
C=CC[C@H](CC(=O)N[C@H](CO)Cc1ccccc1)C(=O)N[C@H](COC(=O)[C@H](CC=C)CC(=O)OC(C)(C)C)Cc1c[nH]c2ccccc12	-10	3936
COc1ccc([C@H]2CC(=O)C=C(c3ccc(C)cc3)C2)cc1	-16	3049
Cc1cc(NC(=O)NC(=O)c2ccccc2NC(=O)CN)ccc1Oc1ncc(Br)cn1	-37	4063
C/C=C(/C)C(=O)O[C@@H]1Cc2c(ccc3ccc(=O)oc23)OC1(C)C	-18	3888
CCN(CC)c1ccc2nc3ccc(N)cc3[n+](-c3ccccc3)c2c1	-19	3078
Cc1ccc(S(=O)(=O)N[C@@H](Cc2ccccc2)C(=O)CCl)cc1	-14	5920
Cc1cccc(NC(=O)c2nc[nH]c2C(=O)NCCCNC(=O)c2[nH]cnc2C(=O)Nc2cccc(C)c2)c1	-1	3548
COc1cccc([C@@H]2CC=C(C(=O)O)[C@H](c3ccc(F)cc3)N2S(=O)(=O)c2ccc(C)cc2)c1	-12	3502
Cc1cn(C2CCCO2)c(=O)nc1N (stereo unspecified)	-8	3975
C=CCC[C@@H](Cc1ccc(F)cc1)C(=O)OC[C@@H](C)NC(=O)[C@H](CC=C)CC(=O)N(CCO)Cc1ccccc1	3	4074
Cc1ccc(OC(F)F)c(N2C(=O)C3C4CCC(O4)C3C2=O)c1 (stereo unspecified)	-4	3932

In the list so far, these contain nitrogen in an aromatic ring.
SMILES	PrP 5UTR inh	Bead autofluor
CC(C)C[C@@H](CNCC(=O)[C@H](Cc1c[nH]c2ccccc12)NC(=O)c1[nH]cnc1C(=O)N[C@@H](C)CN)NC(=O)c1nc[nH]c1C(=O)N[C@@H](Cc1ccccc1)C(=O)O	-13	3842
Cc1ccc2nc(N3CCN(C(=O)c4ccccc4F)CC3)c(C#N)cc2c1	-16	4434
C=CC[C@H](CC(=O)N[C@H](CO)Cc1ccccc1)C(=O)N[C@H](COC(=O)[C@H](CC=C)CC(=O)OC(C)(C)C)Cc1c[nH]c2ccccc12	-10	3936
Cc1cc(NC(=O)NC(=O)c2ccccc2NC(=O)CN)ccc1Oc1ncc(Br)cn1	-37	4063
CCN(CC)c1ccc2nc3ccc(N)cc3[n+](-c3ccccc3)c2c1	-19	3078
Cc1cccc(NC(=O)c2nc[nH]c2C(=O)NCCCNC(=O)c2[nH]cnc2C(=O)Nc2cccc(C)c2)c1	-1	3548
Cc1cn(C2CCCO2)c(=O)nc1N (stereo unspecified)	-8	3975

Next section.
SMILES	PrP 5UTR inh	Bead autofluor
CCOC(=O)[C@]12Cc3cc(Cl)ccc3[C@H]1N(Cc1ccccc1)C(=O)c1ccccc12	-24	4116
CNC(=O)OCc1nc(SSC(C)(C)C)n(C)c1COC(=O)NC	-20	3510
C[C@@H]1CC[C@]2(C(=O)O[C@@H]3O[C@H](CO)[C@@H](O)[C@H](O)[C@H]3O)CC[C@]3(C)C(=CCC4[C@@]5(C)CC[C@H](O[C@@H]6OC[C@H](O)[C@H](O[C@@H]7O[C@H](CO)[C@@H](O)[C@H](O)[C@H]7O)[C@H]6O)C(C)(C)C5CC[C@]43C)C2[C@]1(C)O (stereo partly specified)	-10	2947
C[C@H](CCC(=O)OCc1cn(CC(=O)c2ccc(O)cc2)nn1)C1CC[C@H]2[C@@H]3CC[C@@H]4C[C@H](O)CC[C@]4(C)[C@H]3C[C@H](O)[C@]12C (stereo partly specified)	-11	3071
CCc1nc(N)nc(N)c1-c1ccc(Cl)c(N=[N+]=[N-])c1	-10&-14	3859&2844
CCN1C(=NCc2cc(OC)c(OC)c(OC)c2)N[C@@H](c2ccccc2)C(C(=O)OC)=C1C	0	3149
C[C@@H]1CN([C@H](C)CO)C(=O)Cc2cc(NS(=O)(=O)c3ccc(F)cc3)ccc2O[C@H]1CN(C)Cc1ccc(C(=O)O)cc1	-8	3966
CN1C[C@@H]2[C@@H]3C(=O)N(C)C(=O)[C@@H]3[C@](C)(C1=O)N2C(=O)c1ccc(C(C)(C)C)cc1	-16	4259
C[C@H](OC(=O)c1[nH]cnc1C(=O)N1CCN(C(=O)OC(C)(C)C)CC1)c1ccccc1	0	3564
COc1ccc(/C=N\NC(=O)c2ccc([N+](=O)[O-])cc2)cc1COc1c(F)c(F)cc(F)c1F	-6	5622
CN1CCN(S(=O)(=O)c2ccc(C(=O)NC3CCCCC3)cc2)CC1	-10	3830
O=C1OC[C@@H]2CCCN2C(=O)[C@@H](CC(=O)N(CCO)Cc2ccccc2)C/C=C\CC[C@H]1Cc1ccc(F)cc1	-5	4466
CN(O)C(=S)c1ccccc1	-20	4075
CCCCCCCCOC(=O)c1cc([N+](=O)[O-])c(Sc2ncnc3nc[nH]c23)c([N+](=O)[O-])c1	14	3652
CCOc1ccc(CCN2C(=S)N([C@@H](CC(C)C)CN3CCCC3CN3C(=S)NC[C@@H]3Cc3ccc(O)cc3)C[C@@H]2Cc2ccc(O)cc2)cc1 (stereo partly specified)	-15	3654
O=C(c1ccco1)N1CCN(C(=O)c2ccco2)C1=S	-34	4098
CC(=NNC(=S)Nc1cccc(Cl)c1)c1ccccn1	-9	4466
CO[C@@]12[C@H](COC(N)=O)C3=C(C(=O)C(C)=C(N)C3=O)N1C[C@@H]1N[C@@H]12	-7	5895
Cc1cc(=O)oc2cc(O)cc(O)c12	-3	5129
COC(=O)c1c(-c2ccc(S(C)(=O)=O)cc2)sc2ccc(OC)cc12	-63	3276
O=C1/C(=C\c2ccc(O)cc2)CCC1CNc1ccc(Cl)cc1 (stereo unspecified)	50	3017
C[C@@H](NC(=O)c1nc[nH]c1C(=O)NC1CCN(C(=O)OC(C)(C)C)CC1)c1ccccc1	-18	4078
O=C(CCCC(=O)NN=Cc1ccccc1Cl)NN=Cc1ccccc1Cl	-99	3655
O=C(NC1CCCCC1)N1Cc2ccccc2-n2nncc2C1	5	2845
COc1cc2c(c(OC)c1OC)-c1ccc(OC)c(=O)cc1C(NC(=O)c1ccccc1)CC2 (stereo unspecified)	56	3531

(list continues)
SMILES	PrP 5UTR inh	Bead autofluor
NCCc1cc(O)c(O)cc1O	-4&-15	4376&4539
O=C(N/N=C/c1ccc(F)cc1)c1cc(-c2ccccn2)nc2ccccc12	-7	5229
Cc1cc(NC(=O)CN2C(=O)NC(c3ccccc3)(c3ccc(C)c(C)c3)C2=O)no1 (stereo unspecified)	4	2734
CCOC(=O)[C@@H]1[C@H]2COc3ccc(Br)cc3[C@H]2N2C(=O)N(c3ccc(C)cc3)C(=O)[C@@]12C	-15	3759
O=C(NCc1ccccc1)c1cccc(NC(=O)c2ccccc2)c1	5	3219
O=C(C[C@H]1C/C=C\C[C@H](NC(=O)OCC2c3ccccc3-c3ccccc32)C(=O)O[C@H](c2ccccc2)CNC1=O)N[C@H](CO)Cc1ccccc1	4	2961
C=CC[C@@H](CC(=O)OC(C)(C)C)C(=O)OC[C@H]1CCCN1C(=O)[C@@H](CC=C)CC(=O)N(CCO)Cc1ccccc1	-26	2844
C[C@@H]1O[C@@H](Oc2c(-c3ccc(O)c(O)c3)oc3cc(O)cc(O)c3c2=O)[C@H](O)[C@H](O)[C@H]1O	-15&12	5468&2988
Cn1nc(C(=O)NNC(=O)c2ccc(Cl)c(S(N)(=O)=O)c2)c2ccccc2c1=O	-8	3794
Cc1noc(C)c1NC(=O)N(C)C[C@H]1Oc2ccc(NS(=O)(=O)c3c(C)noc3C)cc2C(=O)N([C@H](C)CO)C[C@@H]1C	-32	3953
Cc1ccc([C@@H]2CC=C(C(=O)O)CN2S(=O)(=O)c2ccccc2C)cc1	-9	4015
O=C1C=C(c2ccc(Oc3ccccc3)cc2)C[C@@H](c2ccc(F)cc2)C1	-8	4023
C[C@H](CO)N1C[C@H](C)[C@@H](CN(C)S(C)(=O)=O)Oc2ccc(NC(=O)C3CCCCC3)cc2C1=O	-8	2878
C=CC[C@H](CC(=O)N(CCO)Cc1ccccc1)C(=O)N[C@H](COC(=O)[C@@H](CC=C)Cc1ccc(F)cc1)Cc1ccccc1	-9	3385
Nc1nc(N)c(-c2cccc(C(F)(F)F)c2)c(Cc2cccc(C(F)(F)F)c2)n1	8	4068
CCc1ccc([C@@H]2CC=C(C(=O)O)[C@H](c3ccccc3F)N2S(=O)(=O)c2ccc(C)cc2)cc1	-17	2982
COc1ccc(-c2ccc3c(c2)C2CC3CCN2C(=O)C2CCCCC2)cc1 (stereo unspecified)	-27	3889
CN1OC[C@@H]2CN(C(=O)CCc3ccccc3)[C@H](c3cccc(Oc4ccccc4)c3)C[C@@H]21	-6	3659
O=C(NC1CC1)c1cccc(NC(=O)C2CCCCC2)c1	-12	4073
CCOC(=O)N1C(=O)NC(=O)C1c1ccc(Cl)cc1 (stereo unspecified)	-17	2865
Cc1ccc2c(c1C)-c1c(ccc(C)c1C)C(=O)C2=O	-44	3951
C#CCOCCOCCOCCNc1nc(N2CCN(C(=O)[C@H]([C@@H](C)CC)n3cc(CCCCN)nn3)CC2)nc(N2CCN(C(=O)[C@H](CCCCN)n3cc(CC(C)O)nn3)CC2)n1 (stereo partly specified)	-15	4014
COc1ccc2nc3n(c(=O)c2c1)-c1ccc(Cl)cc1C(=O)NC3Cc1ccc(O)cc1 (stereo unspecified)	-4	3667
Cn1c2ccccc2c2ccc3c(c21)C(=O)C=CC3=O	-18	3874
CSC1=NSC2=NC(=O)/C(=C/c3coc4ccc(O)cc4c3=O)C(=N)N12	-21	3191

Rewritten with values under each structure: part of the list above.
Under each structure – PrP 5UTR inh	Bead autofluor
> Nc1nc(N)c(-c2cccc(C(F)(F)F)c2)c(Cc2cccc(C(F)(F)F)c2)n1
→ 8	4068
> O=C(C[C@H]1C/C=C\C[C@H](NC(=O)OCC2c3ccccc3-c3ccccc32)C(=O)O[C@H](c2ccccc2)CNC1=O)N[C@H](CO)Cc1ccccc1
→ 4	2961

Later entries:
SMILES	PrP 5UTR inh	Bead autofluor
COc1ccc(C2=Cc3ccc(OC(C)=O)cc3OC2)cc1	-142	3759
COc1ccc(CC2C(=O)NC(C)C(=O)N(C)C3Cc4ccc(cc4)Oc4cc(ccc4O)CC(C(=O)NC(C)C(=O)NC(C)C(=O)N2C)N(C)C3=O)cc1 (stereo unspecified)	49	3683
COC(=O)C(=O)C1CCc2c(Cl)cc(OC)c(OC)c2C1=O (stereo unspecified)	94*	3594
COC(=O)C[C@H](NC(=O)Cn1cc(C)c(=O)[nH]c1=O)C(=O)OC	-19	3844
CCOC(=O)[C@H]1[C@H]2COc3ccc(C)cc3[C@@H]2N2C(=O)CN(Cc3ccc(C)cc3)C(=O)[C@@]12C	-22	5547
COc1cccc2c3cccc(OC)c3c3[nH]cnc3c12	-16	4345
CC(C)C(=O)Nc1cccc(COc2cccc(CN(Cc3ccccc3)C(=O)OC(C)(C)C)c2)c1	-4	2980
C=CC[C@H](CC(=O)N(CCO)Cc1ccccc1)C(=O)N[C@H](COC(=O)[C@@H](CC=C)Cc1ccc(F)cc1)Cc1c[nH]c2ccccc12	-20	3843
CC(C)(O)CN(CCCNC(=S)Nc1ccccc1)C(=S)Nc1ccccc1	-21	3992
CN(C)c1ccc(-c2cc(O)c3ncccc3c2)cc1	-13	2695
CCOC(=O)[C@H]1[C@H]2COc3ccc(C)cc3[C@@H]2N2C(=O)CN(Cc3ccco3)C(=O)[C@@]12C	-13	2830
COc1cc(NCCCn2cnc(C(=O)Nc3ccc(C)c(C)c3)n2)cc(OC)c1OC	-11	3989
CCOC(=O)[C@H]1[C@H]2COc3cc(OC)ccc3[C@@H]2N2C(=O)CN(C)C(=O)[C@@]12C	-16	4208
O=c1[nH]cncc1OCc1ccccc1	-7	3903
c1ccc(-c2cc3ccccc3cn2)cc1	-75	3434
Nc1nc(-c2ccccc2)c(CCCOc2ccc(NC(=O)CBr)cc2)c(=O)[nH]1	-29	4056
O=C(NNc1ccccc1)c1ccc(Cl)c(Cl)c1	-6	3273
Cc1ccc(S(=O)(=O)NCCC(=O)N2CCN(c3ccccc3)CC2)cc1C	0	4347
CSc1ccc(C2=CC(=O)C[C@H](c3ccc(F)cc3)C2)cc1	4	3768
C#CCOCCOCCOCCNc1nc(N2CCN(C(=O)CCCCCCCCCCNC(=O)Cn3cc(CCCCCN)nn3)CC2)nc(N2CCN(C(=O)CCCCCCCCCCNC(=O)[C@@H](CCSC)n3cc(CCO)nn3)CC2)n1	-23	3370
